Source: PubChem
Sa RN4220 lethal: S. aureus RN4220 growth inhibition. inhibition, % (no concentration beside the values). AID 1259311. OD600, 16 h. actives 0.33% (n = 330,000);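 active = z-score of -3 or lower and OD600 up to 0.18 on both plates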;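 also: plate controls were untreated cells for no effect and reference antibiotic for full effect; stock transfer was 100 nL into about 80 µL; one replicate is shown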
ugtP null kill: growth inhibition of S. aureus ugtP deletion strain. S. aureus RN4220 ugtP deletion, OD600 growth, 16 h; some inactives read as strong as hits. growth inhibition, % (test concentration not listed). actives 0.54% (n = 330,000). AID 1259309;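 active = z-score under -3 and OD600 up to 0.15 on both plates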;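 also: plate controls were untreated wells for no effect and antibiotic for full effect; wells of about 80 µL received 100 nL stock; the first replicate is given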
Mtb hypoxia rep: reduces hypoxia-regulated biosensor signal in M. tuberculosis; fluorescence inhibition, % (test concentration not listed); M. tuberculosis hypoxia-regulated fluorescent reporter, fluorescence; actives 0.1% (n = 300,000);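 active = 35 to 45% if threefold the growth effect, above 45% if 1.5-fold the growth effect; inactive = the rest, general growth blockers included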;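 also: wells of about 50 µL received 100 nL stock; 0% = vehicle wells and 100% = reference inhibitor wells; whole bacteria with a GFP reporter of the hypoxia response; strong numbers were not always called active; many hits fall short of the cut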
PrP UTR inh: inhibition of PrP 5' UTR reporter expression; inhibition, % (concentration not given with the values); actives 0.35% (n = 340,000); cell-based PrP 5' UTR mRNA reporter, plate reader;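 active = every replicate at 50% or more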;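 also: 0 = median of the neutral control wells; tested in H4 reporter cells; numbers are from one replicate; inactives centre near -14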
BJeLR viability: BJeLR cell viability loss. BJeLR (HRASV12) viability, CellTiter-Glo ATP luminescence, 48 h; reference of the scale not given here. inhibition, % (no concentration beside the values). actives 0.17% (n = 300,000). AID 1554;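 active = replicate mean above 50%; inconclusive = above 50% but judged a plate artefact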;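 also: 50 nL library stock added to about 25 µL; numbers are from one replicate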
Autofluor counter: flagged as autofluorescent in microsphere protease counterscreen; compound autofluorescence counterscreen, microsphere flow cytometry; hits give high values; fluorescence intensity (concentration not given with the values); actives 3.1% (n = 360,000); AID 624483;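 active = at least 3 SD above the mean of all compounds, about 16000 in these data; inconclusive = too few beads counted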;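 also: 100 nL of 1 mM stock went into each well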
Mtb hypoxia rep growth: recorded beside Mtb hypoxia rep, whose call it bears; growth inhibition, %; measured here: M. tuberculosis growth (absorbance);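 0% = vehicle and 100% = reference antibiotic; read after six days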
Starred values were filed as active, the others as inactive; ? = inconclusive; · = not tested or not shown; & = joins results of further samples. Rows are unselected; about 4% have a hit in one of these screens.

SMILES	Sa RN4220 lethal	ugtP null kill	Mtb hypoxia rep	Mtb hypoxia rep growth	PrP UTR inh	BJeLR viability	Autofluor counter
Cc1ccc(C(=O)CCC2CCCC2=O)cc1 (configuration not stated)	-16	-5	24	-14	-66	10	2779
Cc1ccc2c(n1)CC(C)(C)CC2=NO	-1.8	-8	4	6	·	·	·
COc1cccc(NC(=O)C2CCN(c3ncccn3)CC2)c1	3.7	-6	-2	3	-23	1	9076
CCOC(=O)c1ccc(Oc2nc(NC(C)(C)C)nc(N(C)C)n2)cc1	-7.1	6	-3	2	-5	-5	2828
Cc1cc(C)cc(OCCNS(=O)(=O)c2cccs2)c1	3.5	-6	18	-3	-26	6	5514
CC(C)(C)OC(=O)N1CCC(C(=O)NCC2CCCO2)CC1 (configuration not stated)	-5.1	-4	4	5	-7	-2	3090
COc1cc(CN2CCNC(=O)C2CC(=O)N(C)Cc2ncc[nH]2)cc(OC)c1 (configuration not stated)	3.2	-1	2	-2	-4	-1	4686
O=C(CNC(=O)C1COc2ccccc2O1)N/N=C/c1ccc([N+](=O)[O-])cc1 (configuration not stated)	·	·	·	·	-6	4	5254
O=c1c2cnn(-c3ccccc3)c2nnn1N=Cc1cccnc1	5.4	1	6	10	·	·	·
O=C(CCNc1ccccc1)c1cccc([N+](=O)[O-])c1	5.7	12	9	9	1	13	20571*
O=C(Nc1ccccc1C(F)(F)F)c1ccc(CN2CCC(Cc3ccccc3)CC2)cc1	-18	-5	6	6	-7	10	3419
COc1ccc(-n2nc([N+](=O)[O-])c(=NCc3ccco3)n2O)cc1	2.1	11	-10	-1	-31	1	2544
O=C(NCc1ccco1)C1CCCCC1	5.4	1	·	·	-6	-1	2712
C/C(=N\N)c1c(-c2ccccc2)c2cc(C)ccc2[nH]c1=O	·	·	·	·	-3	-10	3445
CC(=O)c1c(-c2ccccc2)c2cc([N+](=O)[O-])ccc2[nH]c1=O	·	·	·	·	-27	1	3973
CCn1c(P(C)(=O)O)nc2ccccc21	1.9	5	10	1	-16	-10	2144
CC1CCN(c2nc3c(N)ncnc3n2[C@@H]2O[C@H](CO)[C@@H](O)[C@H]2O)CC1	-0.3	-1	2	4	-30	-11	3758
O=C(CSc1nc2ccccc2[nH]1)Nc1nc(-c2cccc(Br)c2)cs1	99*	99*	1	4	-23	-3	2463
COc1ccc(/C=N/Nc2nc(C)cc(=O)[nH]2)cc1OC	·	·	·	·	-2	20	3239
COC(=O)c1ccc(COc2ccccc2/C=C(\C#N)C(=O)Nc2c(C)cccc2C)cc1	29	-10	2	11	-30	-1	2117
C=CCn1c(SCc2nc3ccccc3c(=O)[nH]2)nc2ccccc2c1=O	5.3	-5	-1	-5	-7	-8	3361
Cc1ccc(C)c(NC(=S)NC(NC(=O)Cc2cccc3ccccc23)C(Cl)(Cl)Cl)c1 (configuration not stated)	17	81	3	5	-18	-7	10430
Cc1cc(O)c(C(C)C)cc1NC(=O)c1ccc(Cl)cc1	-1.1	-7	·	·	-14	2	2722
CCOC(=O)C1(c2ccccc2)CCN(CCc2ccc(NC(=O)CCC(=O)O)cc2)CC1	3.6	1	14	10	-34	·	3549
N#CNC(=Nc1cccc(C(F)(F)F)c1)SCc1ccc(C(=O)O)cc1	5.8	2	-1	2	-8	-6	4210

The list continues.
SMILES	Sa RN4220 lethal	ugtP null kill	Mtb hypoxia rep	Mtb hypoxia rep growth	PrP UTR inh	BJeLR viability	Autofluor counter
COc1ccc(N(Cc2ccccc2)S(=O)(=O)c2cccc(C(=O)NCC3CCCO3)c2)cc1 (configuration not stated)	-0.3	2	1	-5	1	·	4396
CC1=NN(C(=O)c2ccc(Cn3cc(Br)c([N+](=O)[O-])n3)o2)C(O)(C(F)(F)F)C1 (configuration not stated)	4.6	8	9	10	-19	1	2343
CN(C)C=NC(=O)c1cc(C(=O)c2ccc(F)cc2)c[nH]1	-0.4	7	9	10	20	2	4701
COCc1cc(C)nc(OCC(=O)N/N=C/c2ccc(OC)c(OC)c2)c1C#N	·	·	·	·	-4	-8	2514
C/C(=N\NC(=O)C1(C)CC1(Br)Br)c1ccc(C)cc1C (configuration not stated)	·	·	·	·	-55	9	5147
CCOc1ccccc1CNn1cnnc1	4.3	3	14	-5	-24	1	6534
COc1ccc(-c2cnnn2-c2ccc(NC(=O)c3ccc(S(=O)(=O)N4CCCCC4)cc3)cc2)cc1	13	-8	-1	5	-17	-6	2330
COc1ccc(C)cc1N1C(=N)/C(=C2/Nc3ccccc3S2)C(c2ccccc2)C1=O (configuration not stated)	64	66	4	8	-14	·	2014
Cc1ccccc1N1C(=O)CC(Nc2ccc3c(c2)OCO3)C1=O (configuration not stated)	-2.2	10	0	15	-22	-3	2044
COCCN(C(=O)COC(=O)c1ccco1)c1c(N)n(Cc2ccccc2)c(=O)[nH]c1=O	1.8	4	5	10	-16	3	?
COc1ccc(CC(=O)Nc2ccc(S(=O)(=O)N(C)C3CCN(C)CC3)cc2)cc1	2.2	8	-3	3	-6	·	9028
Cc1ccccc1S(=O)(=O)N1C(c2ccc(Cl)cc2)CC=C(C(=O)O)C1c1ccc(F)cc1 (configuration not stated)	21	25	-3	-8	·	·	·
COc1ccc(C(C(=O)Nc2ccc3c(c2)OCO3)N(C)C(=O)Cc2c[nH]c3ccccc23)cc1 (configuration not stated)	2.9	17	12	10	-2	0	2738
COCCN1Cc2cccc(C(=O)NCCc3ccccc3)c2C1=O	3.0	-2	0	0	6	6	2826
Cc1ccc(C(=O)NCCSC(C)(C)C)cc1[N+](=O)[O-]	0.2	3	·	·	-47	1	2064
Cc1nnc(NC(=O)CSc2nc(CC(C)C)nc3c2c(=O)n(C)c(=O)n3C)s1	7.2	5	-3	12	-14	7	4578
CCCSc1nc(NCc2ccco2)c2c3c(sc2n1)COC(C)(CC)C3 (configuration not stated)	0.4	-4	1	2	-4	-5	9673
O=C(Nc1cccc(NC(=O)c2cccnc2)c1)c1cccnc1	7.2	2	2	4	-23	-3	5497
CCCCC(CC)CNC(=O)C1CC=CCC1C(=O)O (configuration not stated)	4.4	1	5	13	-31	-2	2370
COc1ccc(N2CCN(C(=O)CSc3nnc4c(C)cc5c(C)cc(C)cc5n34)CC2)cc1	5.5	-16	-1	-2	-35	4	6079
CN(CC(=O)Nc1cccc(S(=O)(=O)NC2=NCCC2)c1)Cc1ccccc1Cl	6.3	2	0	-6	-4	·	2941
C#CCOCCOCCOCCNc1nc(N2CCN(C(=O)C(CCCCN)n3cc(C(N)CC(C)C)nn3)CC2)nc(N2CCN(C(=O)C(Cc3cc4ccccc4[nH]3)n3cc(C(N)Cc4ccc(O)cc4)nn3)CC2)n1 (configuration not stated)	3.0	0	12	21	·	·	·
Cc1cc(NC(=O)C(C)SCC(=O)OC(C)C(=O)Nc2cccc(C#N)c2)no1 (configuration not stated)	-3.5	-5	-6	6	0	9	5958
CC(NC(=O)Nc1ccc(F)cc1)c1ccc2c(c1)OCO2 (configuration not stated)	2.7	-4	6	-10	-20	11	5754
Cn1c(CCNC(=O)c2cccs2)nnc1SCC(=O)N1CCN(c2ccccc2)CC1	8.4	-6	7	8	-7	-4	23569*

Other compounds follow.
SMILES	Sa RN4220 lethal	ugtP null kill	Mtb hypoxia rep	Mtb hypoxia rep growth	PrP UTR inh	BJeLR viability	Autofluor counter
Cc1ccc(CS(=O)(=O)c2ncc(Cl)c(C(=O)Nc3nnc(C)s3)n2)cc1	·	·	·	·	10	15	4676
COc1ccc(S(=O)(=O)N2CCCC2=O)cc1N(C)S(C)(=O)=O	-0.7	8	14	2	-4	-7	3562
COc1ccc(-c2nc3c(=O)n(C)c(=O)[nH]c3n2CCc2ccccc2)cc1	2.7	-1	·	·	-14&4	7	3325
COc1cc(C(=O)OCCN2CCOCC2)cc(OC)c1OC	1.2	4	7	3	-13	-5	13343
COc1ccc(N2C(=O)CCC(C(=O)Nc3ccccn3)C2c2ccc(OC)c(OC)c2)cc1 (configuration not stated)	3.8	-4	19	10	-11	-9	4538
CS(=O)(=O)N(CC(=O)NCCSCc1cccc(Cl)c1)c1ccc(F)cc1	2.5	9	6	12	-4	10	4105
O=C(c1cc(C(=O)N2CCOCC2)c2nc3ccccc3n2c1)c1ccccc1O	4.1	6	2	3	·	1	·
CCCCOC(=O)Cn1c(=O)n(CC(=O)OCCCC)c2cc(C)ccc21	2.6	4	·	·	-6	3	5135
Cc1cc(-c2ccc(C)c(S(=O)(=O)Nc3cccc(CN4CCCC4)c3)c2)on1	4.5	15	-13	-12	-19	1	·
CSc1nc2n(n1)C(c1cc(Br)ccc1F)C(C(=O)N(C)C)=C(C)N2 (configuration not stated)	4.3	-8	-1	0	-25	11	20105*
Nc1cccc(S(=O)(=O)Nc2ccc(Br)cc2)c1	8.0	0	10	0	-3	-16	4627
O=C(NCCc1ccccc1)c1ccnc(/C=N/O)c1	·	·	·	·	-17	-9	10147
Cc1ccc2nc3c(cc(C(=O)NCCc4ccccc4)c(=N)n3CCN3CCOCC3)c(=O)n2c1	2.0	9	-2	1	-8	6	5950
Cc1ccccc1OCC(=O)NN=C1SCC(=O)N1Cc1ccccc1	1.0	-2	-1	4	·	·	·
CCOc1cnc(-c2c(-c3c(Cl)cccc3Cl)noc2C)o1	2.6	14	9	-3	-3	-2	3838
CCCC/C(C)=N\NC(=O)CNS(=O)(=O)c1ccc([N+](=O)[O-])cc1	·	·	·	·	-14	5	3049
O=C(CSc1nc2ccccc2n1Cc1ccc(Cl)cc1)N/N=C/c1ccccc1C(=O)O	·	·	·	·	26	1	4499
COc1ccc(S(=O)(=O)NC2CC(=O)N(c3ccc(C)c(C)c3)C2)cc1C (configuration not stated)	5.7	-1	0	2	-11	-4	·
O=C(Nc1ccc(Nc2ccccc2)cc1)c1cccc(F)c1	3.1	-1	-4	-9	-48	2	3430
Cc1cc(C)n(Cc2cccc(F)c2)c(=O)c1C#N	0.3	-4	6	10	-16	6	9944
CCCS(=O)(=O)c1nc(S(=O)(=O)c2ccc(C)cc2)c(NCc2ccc3c(c2)OCO3)s1	-1.1	-7	10	-4	-11	1	2359
O=C(CSC1=Nc2ccccc2C2=NC(CC(=O)NC3CCCCC3)C(=O)N12)NCc1ccco1 (configuration not stated)	-3.2	-6	5	1	-20	-1	8761
CN1CCN(C2OC(=O)c3ccccc32)CC1 (configuration not stated)	25	-4	6	3	0	0	17143*
CN(C)NC(=O)c1ccsc1NC(=O)c1ccc(S(=O)(=O)N(C)C)cc1	-5.1	-6	4	6	-20	-2	5718
CC(C)CCN1CCN(Cc2cccs2)CC1CCO (configuration not stated)	6.0	1	15	4	-20	5	4226

5 records drawn at random from those above:
SMILES	Sa RN4220 lethal	ugtP null kill	Mtb hypoxia rep	Mtb hypoxia rep growth	PrP UTR inh	BJeLR viability	Autofluor counter
O=C(CSc1nc2ccccc2n1Cc1ccc(Cl)cc1)N/N=C/c1ccccc1C(=O)O	·	·	·	·	26	1	4499
COc1ccc(S(=O)(=O)NC2CC(=O)N(c3ccc(C)c(C)c3)C2)cc1C (configuration not stated)	5.7	-1	0	2	-11	-4	·
COc1ccc(S(=O)(=O)N2CCCC2=O)cc1N(C)S(C)(=O)=O	-0.7	8	14	2	-4	-7	3562
Cc1ccc2nc3c(cc(C(=O)NCCc4ccccc4)c(=N)n3CCN3CCOCC3)c(=O)n2c1	2.0	9	-2	1	-8	6	5950
CCCC/C(C)=N\NC(=O)CNS(=O)(=O)c1ccc([N+](=O)[O-])cc1	·	·	·	·	-14	5	3049

(list continues)
SMILES	Sa RN4220 lethal	ugtP null kill	Mtb hypoxia rep	Mtb hypoxia rep growth	PrP UTR inh	BJeLR viability	Autofluor counter
O=C(CS(=O)CC(=O)N(CC(=O)NC1CCCC1)c1ccccc1F)Nc1ccc(F)cc1 (configuration not stated)	1.2	1	13	4	-11	-7	3832
CC(C)C(NS(=O)(=O)c1cccc2nsnc12)C(=O)NCc1ccco1 (configuration not stated)	2.8	7	-3	7	-19	7	4816
O=c1c2cc(NC(=S)N3CCCCC3)ccc2nc2n1CCCCC2	2.9	3	3	11	-11	-18	4468
Cc1ccc(/C=C/S(=O)(=O)NCC(=O)OCC(=O)N2CC(=O)Nc3ccccc32)cc1	10	3	2	-5	-33	-10	3403
Cc1cc2[nH]c(=O)c(=O)[nH]c2cc1S(=O)(=O)N1CCN(c2cccc(C)c2C)CC1	2.2	4	·	·	-13	-6	5417
COc1cc(/C=N/NC(=O)CNC(=O)c2cccs2)ccc1O	·	·	·	·	-7	-8	2581
O=C1CC2(CCN(C(=O)c3ccc(F)cc3)CC2)Oc2ccccc21	3.9	6	7	2	-17	-3	5118
